Source: PubChem (ICCB-Longwood Screening Facility, Harvard Medical School)
VACV E9 pol inh: inhibitors of vaccinia virus processive DNA synthesis (E9 polymerase); hit rate 0.94% among 46,000; in vitro processive DNA synthesis, absorbance read-out; stronger effect = lower value; some inactives read as strong as hits; normalized absorbance, % (test concentration not listed);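 active = replicate mean up to 90% and picked by the depositor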;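 note: 100% = median of the test wells of a plate; 100 nL library stock went into each well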
* hit, by the source's call. Some of the compounds tested (hit frequency here may not be typical).

Preview:
smiles	VACV E9 pol inh
COc1ccc(CCNC(=O)C2(C)CCC(=O)N2CCC(C)C)cc1OC (stereo unspecified)	104.1
CC1(NC(=S)Nc2ccc(O)cc2)CCS(=O)(=O)C1 (stereo unspecified)	100.0

The whole of this part (from the top)
smiles	VACV E9 pol inh
COc1ccc(CCNC(=O)C2(C)CCC(=O)N2CCC(C)C)cc1OC (stereo unspecified)	104.1
CC1(NC(=S)Nc2ccc(O)cc2)CCS(=O)(=O)C1 (stereo unspecified)	100.0
COc1ccc(-c2nnc3c4ccccc4c(C)nn23)cc1S(=O)(=O)NC(C)(C)C	80.8
CCc1ccc(S(=O)(=O)c2cn(CC)c3ccccc3c2=O)cc1	97.0
CCOC(=O)c1ccc(N=C(N)SCc2ccc(Cl)cc2)cc1	64.6*
CC(=O)Oc1ccc2occ(C(=O)CCN(C)C)c2c1	99.9
O=C1N=C(c2ccccc2)S/C1=C\c1cccs1	99.8
CCCNC(=O)c1ccccc1NC(=O)c1ccco1	94.6
CC1=CC(C)C2COC(c3ccccc3OCc3ccccc3)C1C2C (stereo unspecified)	100.1
CN(Cc1ccccc1)C(=O)CN1CCCC1=O	100.8
O=C1c2ccccc2-c2nn(C(=O)C3CCCCC3)c3cccc1c23	106.2
COC(=O)CNC(=O)c1nn(-c2ccc(OC)cc2OC)c(=O)c2ccccc12	106.2
CCOc1ccc(OCC)c(NC(=O)C(NS(=O)(=O)c2cccs2)C(C)C)c1 (stereo unspecified)	100.1
COc1cc(CN(C(=O)/C(=C/c2cccnc2)NC(=O)c2ccccc2)C2CCCCC2)ccc1O	98.8
CSCC(CSC)OC(=O)c1c(-c2c(Cl)cccc2Cl)noc1C	104.2
CCCNC(=O)Cn1c(=O)oc2cc(S(=O)(=O)N3CCCC3)ccc21	101.4
CCCCCCCCCCCCCC(=O)O[C@@H]1[C@@H](C)[C@@]2(O)[C@@H](C=C(CO)C[C@]3(O)C(=O)C(C)=C[C@@H]23)[C@@H]2C(C)(C)[C@]12OC(C)=O	100.4
CCOC(=S)SCc1ccc(C(=O)Oc2ccc(F)cc2F)cc1	99.8
CC(=O)Nc1ccc2nc(NC(=O)C(C)(C)C)sc2c1	97.6
O=C(Oc1cccnc1I)c1ccccc1	93.3
CC(=O)N1c2ccc(S(=O)(=O)N3CCc4ccccc43)cc2CC1C (stereo unspecified)	103.9
CN1CCC2(CCN(Cc3ccccc3)C2)C1 (stereo unspecified)	97.7
O=C(c1cccs1)N1c2ccccc2Sc2ccccc21	97.5
CSC1=C(C#N)C(c2ccccc2Cl)C(C(=O)c2ccccc2)=C(C)N1 (stereo unspecified)	101.9
CCc1c(C)[nH]c(N)nc1=S	100.5
CC(C)C(=O)Nc1cccc2nsnc12	92.7
C=CCn1c(=O)[nH]c2ccccc21	100.2
Cc1ccc(C(=O)CC(c2ccco2)S(=O)(=O)c2ccccc2)cc1 (stereo unspecified)	97.3
O=C(CSc1cc(Cl)ccc1Cl)NCCN1CCOCC1	105.0
CCn1c(CCNC(=O)c2ccc(OC)c(OC)c2)nc2ccccc21	98.1
CCc1cc2cc(C(=O)N3CCN(c4ccccc4)CC3)sc2s1	90.7
Cc1cc(NC(=O)c2ccc(Cl)cc2)c(C(C)C)c(S(=O)(=O)c2ccccc2)c1O	100.4

Looked up above.
For VACV E9 pol inh, CCCNC(=O)Cn1c(=O)oc2cc(S(=O)(=O)N3CCCC3)ccc21 is listed with 101.4
For VACV E9 pol inh, COc1cc(CN(C(=O)/C(=C/c2cccnc2)NC(=O)c2ccccc2)C2CCCCC2)ccc1O is listed with 98.8

Following part
smiles	VACV E9 pol inh
CC(CNc1ccccc1)C(=Nc1ccccc1)Nc1ccccc1 (stereo unspecified)	99.0
c1ccc2c(Nc3nc(-n4ccnc4)nc(-n4ccnc4)n3)cccc2c1	99.7
N#Cc1c(F)cccc1N(Cc1cccnc1)C(=S)Nc1ccc(Cl)c(Cl)c1	103.5
Cc1cc2c(cc1C)NC(=O)CC(c1ccccc1O)=N2	94.7
O=C(O)CC12CC3CC(CC(C3)C1(F)F)C2	89.9
C(=C\C1Nc2ccccc2-c2nnc(SCc3ccccc3)nc2O1)/c1ccco1 (stereo unspecified)	100.5
CC1(C)CC(=O)C(C(=N)Cc2ccccc2)=C(O)C1	101.4
COc1ccc(C2C(C(=O)Nc3cccc(C)n3)c3ccccc3C(=O)N2c2ccc(OC)cc2)cc1 (stereo unspecified)	105.1
Cn1c(=O)[nH]c(=O)c2c1nc(Br)n2CC(O)COc1ccc(Cl)cc1Cl (stereo unspecified)	98.8
O=C1c2ccccc2C(=O)N1CCN1CC2CC(C1)c1cccc(=O)n1C2 (stereo unspecified)	100.1
N#Cc1ccccc1NC(=O)c1cc2c(s1)-c1ccccc1SC2	104.2
CCOc1ccc(C(=O)Nc2ccc(-c3nnc4n3CCCCC4)cc2)cc1	107.1
N/C(=N/O)c1cn(-c2ccccc2)nc1-c1ccccc1	99.3
N#CC(c1ccccc1)c1ccccc1	100.4
COc1ccc(CCNC(=O)c2cc3c(=O)[nH]c4ccc(C)cc4c3s2)c(OC)c1	101.6
CC(C)N1C(=O)CSC1c1cccs1 (stereo unspecified)	100.7
CNc1cc(Cl)nc(SC)n1	85.9
CN(C)S(=O)(=O)N1CCN(c2ccccc2)CC1	96.0
O=C(COC(=O)C1CC2C=CC1C2)c1ccccc1 (stereo unspecified)	91.0
O=C(CS(=O)(=O)c1cn(Cc2ccc(Cl)cc2)c2ccccc12)Nc1ccccc1	85.4
CS/C(=C(/C#N)S(=O)(=O)c1ccc(Cl)cc1)N1CCSCC1	77.5
CCOC(=O)C1C(=O)C=C(c2cccc(OC)c2)CC1c1ccc(CC)cc1 (stereo unspecified)	94.1
O=C(Nc1ccccc1)N1CCCc2ccccc21	103.2
C#C[C@]1(OC(C)=O)CCC2C3CCC4=CC(=O)CC[C@@H]4C3CC[C@@]21C (stereo partly specified)	104.9

Four records picked at random from those above, as already listed:
smiles	VACV E9 pol inh
O=C(Nc1ccccc1)N1CCCc2ccccc21	103.2
O=C(COC(=O)C1CC2C=CC1C2)c1ccccc1 (stereo unspecified)	91.0
O=C(CS(=O)(=O)c1cn(Cc2ccc(Cl)cc2)c2ccccc12)Nc1ccccc1	85.4
CS/C(=C(/C#N)S(=O)(=O)c1ccc(Cl)cc1)N1CCSCC1	77.5

More records.
mol | VACV E9 pol inh
CN(Cc1ccccc1)C(=O)c1cc(-c2ccco2)nc2ccccc12 | 109.3
CCn1c(=NC(=O)CSCC(=O)Nc2nccs2)sc2ccccc21 | 100.8
COc1cc(C(=O)N(C)c2ccccc2)cc(OC)c1OC | 100.6
CCCC1c2ccsc2CCN1C(=O)c1ccc(Cl)cc1 (stereo unspecified) | 98.8
CC(=O)Nc1ccc(C(=O)CSc2nc(C)cc(=O)[nH]2)cc1 | 100.0
O=C1CSC(=S)N1CC1CCCO1 (stereo unspecified) | 96.0
CC(=O)Nc1ccc(NC(=O)NC2(c3ccccc3)CC2)cc1 | 96.8
CCCn1c(=O)sc2ccccc2c1=O | 80.5
[O-][n+]1ccccc1SC/C=C/c1ccccc1 | 97.5
COc1ccc(Br)c2c1-c1nc(/N=C/c3ccc(C)cc3)sc1C2 | 99.7
Cc1[nH]c2ccccc2c1CCNC(=O)c1cc2cc(Br)ccc2oc1=O | 100.5
COc1ccc(-n2nc3ccc(NC(=O)CSc4ccc(Cl)cc4)cc3n2)cc1 | 100.1
CC(=O)N1C(=O)/C(=C\C(=O)c2ccc(C)cc2)c2ccccc21 | 99.3
COc1ccc(C2(C#N)CCc3[nH]c4ccccc4c3C2)cc1OC (stereo unspecified) | 99.3
Cc1ccc(NC(=O)CNS(=O)(=O)c2ccccc2)c(C(=O)c2ccccc2)c1 | 99.1
CC(C)(C#CC(O)(c1ccccc1)c1ccccc1)N1CCCCC1 | 99.6
Cn1c(SCC(=O)c2ccc3c(c2)OCCO3)nnc1-c1ccc2ccccc2c1 | 104.1
CN1C(=O)C(=Cc2ccccc2)C(=O)N(C)C1=O | 99.9
CCSC1=C(C#N)C(C)C(C#N)C(=O)N1 (stereo unspecified) | 96.3
CCOc1ccc(S(=O)(=O)N2CCN(c3ccc(F)cc3)CC2)cc1 | 99.2
CCOC(=O)CCCN1C(=O)/C(=C/c2cccc(OC)c2)SC1=S | 98.6
O=c1c(O)cc2c(O)oc3c(=O)c(O)cc4c3c2c1CC=4O | 85.8
O=C(Nc1nncs1)c1ccccc1 | 105.4
COc1cnc(NS(=O)(=O)c2ccc(N)cc2)nc1 | 100.5
CCOc1cc2[nH]c(=O)n(Cc3cccc(OC)c3)c(=O)c2cc1OCC | 99.4
CCc1ccc(S(=O)(=O)N2CC(=O)Nc3ccccc32)cc1 | 92.5
O=S(=O)(/N=C(\Nc1ccccn1)c1ccccc1)c1ccccc1 | 91.8
O=C(O)CCc1nnc2ccc(N3CCCC3)nn12 | 103.1
CCCC(=O)N1CCN(c2nc(Cc3ccccc3)c3c(c2C#N)CC(C)(C)OC3)CC1 | 101.4
O=C(Cc1ccccc1)Nc1nnc(SCc2cccc(F)c2)s1 | 101.4
COc1cc2c(cc1OC)CC(C)(C)N(C(=O)c1ccccc1)C2 | 97.7
CN1CCCc2cc(/C=C3\Cc4ccccc4C3=O)ccc21 | 99.9
O=C(CN1C(=O)C2C3C=CC(C3)C2C1=O)NCCN1CCCc2ccccc21 (stereo unspecified) | 92.1
Cc1ccsc1CNC(C)c1ccccc1 (stereo unspecified) | 94.3
O=C(CCC1CCCCC1)Nc1ccc(S(=O)(=O)Nc2ncccn2)cc1 | 100.1
Cc1ccc2cc(CCNS(=O)(=O)c3ccccc3)c(=O)[nH]c2c1 | 100.1
CCn1c(=O)c2c(c3ccccc31)Oc1ccc(C)cc1N=C2C | 99.7
CC1(C)CN(c2cc(C(F)(F)F)cc(C(F)(F)F)c2)C1=O | 105.8
CCNC(=S)N1CCN(CCN=CC2=C(O)CC(c3ccccc3)CC2=O)CC1 (stereo unspecified) | 100.5
OCCN=c1cc(-c2ccccc2)oc2ccc(Cl)cc12 | 41.3*
COc1ccc(Cl)cc1NC(=O)CSc1nc2nccnc2c(=O)n1Cc1ccc(C)cc1 | 104.6
O=S(=O)(Cc1nc(-c2ccccc2Cl)cs1)c1cccs1 | 96.2
Cc1cc(C)n2nc(CNC(=O)Nc3ccccc3Cl)nc2n1 | 102.9
CC1=CN2C(=N)/C(=C/c3cc(C)n(Cc4ccccc4)c3C)C(=O)N=C2S1 | 96.6
CCOc1cc2c(cc1OCC)C1C(C(=O)NCCC(C)C)c3ccccc3C(=O)N1CC2 (stereo unspecified) | 103.9
Cc1nnn(C23CC4CC(CC(C(=O)NC5CCCCCC5)(C4)C2)C3)n1 | 96.6
O=C1CSc2nnc(C3COc4ccccc4O3)n2N1 (stereo unspecified) | 102.9
CC(C)Cc1nc2ccccc2n1C(C)C | 99.0
CC1C(c2ccccc2)O/C(=N\S(=O)(=O)c2ccc(Cl)cc2)N1C (stereo unspecified) | 96.4
Brc1ccsc1-c1ccn[nH]1 | 100.8
Cc1ccccc1C(=O)Nc1cc2c(s1)CCCC2 | 100.5
COc1ccc(N(/N=C2\Oc3ccc4c(C)cc(=O)oc4c3C2=O)C(C)=O)cc1 | 99.2
Cc1ccc(N2C(=O)C(C)C(N3CCCCC3)C2=O)cc1 (stereo unspecified) | 109.3
CCCN(CCC)S(=O)(=O)c1ccc(C(=O)Nc2ccc3sc(SC)nc3c2)cc1 | 99.8
CCCN(CCC)S(=O)(=O)c1ccc(C(=O)Nc2ccc(F)c(F)c2)cc1 | 102.0
COc1ccc(C2C=C(C)Nc3nc4ccccc4n32)cc1 (stereo unspecified) | 107.2
CC1CCC(NC(=O)c2ccc(CSc3nc4ccncc4[nH]3)cc2)CC1 (stereo unspecified) | 103.4
CCN(CC)S(=O)(=O)c1ccc2[nH]cc(C(=O)N3CCC(C)CC3)c(=O)c2c1 | 102.1
COc1ccc2cnn(-c3ccccc3)c(=O)c2c1OC | 103.5
O=C(Oc1ccc2cc(Br)ccc2c1)c1cccnc1Cl | 103.2

Other records follow.
mol | VACV E9 pol inh
Oc1ccc2ccccc2c1C=NCc1cn2ccccc2n1 | 95.2
COc1cc2cc(Oc3ccc4ccc(=O)oc4c3)c(=O)oc2cc1OC(C)=O | 100.9
O=c1ccc(=O)n(CN2CCC(Cc3ccccc3)CC2)[nH]1 | 100.6
CCc1ccc2ncc(C(=O)c3ccccc3)c(N3CCOCC3)c2c1 | 106.7
CCOc1ccc2nc(NC(=O)C3(S(=O)(=O)c4ccc(C)cc4)CC3)sc2c1 | 97.7
C=C(C)Cn1c(CCCO)nc2ccccc21 | 101.1
c1nc(NC2CCCC2)c2[nH]cnc2n1 | 101.1
CCCOc1ccc(C2C3=C(CCCC3=O)OC3=C2C(=O)CCC3)cc1OCC | 100.1
O=C(NCCCN1CCCC1)c1cc(-c2ccncc2)nc2ccccc12 | 86.5
N#Cc1ccc(COc2nncc(Cl)c2Cl)cc1 | 95.5
Cc1ccccc1Nc1nccc(N(C)C)c1C#N | 81.9*
CCOC(=O)CN1CCC(c2cc(-c3ccc(Cl)cc3)n[nH]2)CC1 | 93.4
N#Cc1c(-c2ccccc2)cc[nH]c1=O | 103.8
COC(=O)c1ccc(OC)c(Br)c1 | 99.7
Cc1cc(C)n(CC(O)CN2c3ccccc3Sc3ccccc32)n1 (stereo unspecified) | 112.3
CN(Cc1ccccc1)Cc1c(O)ccc2ccccc12 | 100.2
O=C(/C=C/c1ccc(F)cc1)Nc1ccc(S(=O)(=O)N2CCCC2)cc1 | 108.5
NCCCCCC(=O)O | 100.5
CCc1nnc(NC(=O)Cc2coc3ccc(C)cc23)s1 | 102.9
COc1ccc(C2C(C#N)=C(N)OC(C)=C2C(=O)OCc2ccccc2)cc1 (stereo unspecified) | 102.1
Cc1ccn2cc(-c3cc4ccccc4oc3=O)nc2c1 | 93.5
CC(C)(C)c1ncc(S(=O)(=O)c2ccc(C(F)(F)F)cn2)c(N)n1 | 86.3
CC1(C(=O)Nc2ccccc2)Cc2ccccc2C(=O)O1 (stereo unspecified) | 99.4
CC[C@@H](C(=O)C(C)[C@@H](O)[C@H](C)CCc1ccc(C)c(O)c1C(=O)O)C1OC(CC)(C2CC[C@](O)(CC)[C@H](C)O2)C[C@@H]1C (stereo partly specified) | 97.2
Cc1ccccc1N1C(=O)c2ccccc2S1(=O)=O | 107.2
O=C(NCCCN1CCOCC1)NCc1cccc2ccccc12 | 102.4
CC(c1ccccc1)N1C(=O)NC(=O)/C(=C/c2coc3ccccc3c2=O)C1=O (stereo unspecified) | 91.4
